# High-throughput results deposited in PubChem by National Center for Advancing Translational Sciences (NCATS).
# A488 fluor: qHTS Assay for Spectroscopic Profiling in A488 Spectral Region | max dye equivalency, M | compound autofluorescence, A488 spectral region, dye equivalency; stronger effect = higher value | hit rate 0.1% among 59,000; active = above 10 nM dye equivalent; inconclusive = 1 to 10 nM; inactive = 1 nM or less; about half of its hits are not listed in these tables;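 also: highest value over a series up to 38 µM; compound alone in buffer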
#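 Compounds pin-transferred into 100 mM Tris buffer, pH 8.0, incubated 15 min at room temperature, then imaged with 480 nm excitation/540 nm emission filters. Fluorescence converted to Alexa 488 dye-equivalent concentration via an on-plate six-point A488 standard curve.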
# AID923: qHTS Assay for Allosteric/Competitive Inhibitors of Caspase-1: Spectroscopic Profiling in AFC Spectral Region | compound fluorescence, AFC spectral region (405/520 nm); almost no hit is shown here | Potency, µM (doses to about 57.5 µM), inactives show at the highest dose fluorescence increase, hits mostly activators | hit rate 1.1% among 75,000 | AID 923, 2007; active = well fitted activation curve with a large enough effect; inconclusive = small, poorly fitted or top-dose-only effect;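 also: potency is read from the fitted curve at half-maximal effect; 0% is about no effect; scaled to a free AFC standard on each plate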
#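 Baseline compound fluorescence (AFC region, 405 nm ex/520 nm em) taken from the intercept of kinetic reads with 50 nM caspase-1 and 5 uM Ac-WEHD-AFC; normalized to an on-plate AFC standard curve; compounds titrated up to 57 uM.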
# TSHR agonist: qHTS Assay for Agonists of the Thyroid Stimulating Hormone Receptor; HEK293-CNG-TSHR cells (CNG channel as cAMP sensor), membrane potential dye, cAMP; Potency, µM (highest dose often 57.1 µM), for the others: at the top dose activation, usual class: activators; hit rate 0.48% among 73,000; AID 926, 2007; active = well fitted activation curve of enough size with the parental cells flat; inconclusive = any curve in the parental cells; inactive = parental cells flat and receptor cells flat or falling; also: potency is read from the fitted curve at half-maximal effect; % of control where 0% means no effect; weak receptor curves with flat parental cells got no call and are not listed
# Target sequence (P16473 whole entry, looked up): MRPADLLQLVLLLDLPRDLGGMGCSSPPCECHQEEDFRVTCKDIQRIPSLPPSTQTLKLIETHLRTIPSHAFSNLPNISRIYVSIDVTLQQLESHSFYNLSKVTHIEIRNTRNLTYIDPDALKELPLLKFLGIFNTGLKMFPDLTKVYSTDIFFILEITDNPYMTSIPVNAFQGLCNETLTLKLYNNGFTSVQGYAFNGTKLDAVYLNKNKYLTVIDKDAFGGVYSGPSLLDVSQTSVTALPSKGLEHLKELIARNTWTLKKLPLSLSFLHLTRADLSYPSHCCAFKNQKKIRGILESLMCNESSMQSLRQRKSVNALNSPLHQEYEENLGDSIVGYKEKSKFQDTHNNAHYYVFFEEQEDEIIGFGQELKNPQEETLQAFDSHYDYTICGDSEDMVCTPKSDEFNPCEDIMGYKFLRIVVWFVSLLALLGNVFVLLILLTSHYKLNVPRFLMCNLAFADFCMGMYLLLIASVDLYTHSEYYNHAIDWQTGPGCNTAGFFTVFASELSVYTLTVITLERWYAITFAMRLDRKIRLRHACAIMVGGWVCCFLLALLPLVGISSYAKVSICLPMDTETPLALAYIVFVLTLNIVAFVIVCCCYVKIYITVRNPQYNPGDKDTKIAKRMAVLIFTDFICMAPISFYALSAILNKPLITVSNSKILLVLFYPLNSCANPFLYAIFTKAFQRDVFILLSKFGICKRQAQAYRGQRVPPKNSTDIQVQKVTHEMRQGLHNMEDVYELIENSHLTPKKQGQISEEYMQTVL
#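 HEK 293 cells stably expressing TSHR and a cAMP-gated CNG channel; parental CNG-only cells as counterscreen. Cells preloaded 60 min with membrane potential dye plus 100 uM RO 20-1724, then compound 30 min; fluorescence read at 590 nm.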
# A647 autofl: qHTS Assay for Spectroscopic Profiling in A647 Spectral Region; Compound fluorescence, A647 channel (570/671 nm), Tris buffer; max dye-equivalent concentration, M; 59,000 tested, under 10 active; AID 592, 2007; active means above 1 µM dye equivalent; inconclusive means 0.1 to 1 µM; inactive means 0.1 µM or less;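 also: values scaled relative to a standard on each plate; highest value over a series up to 38 µM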
#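 Fluorescence read (570 nm ex, 671 nm em) after 15 min RT incubation of compounds in 100 mM Tris buffer, pH 8.0; values expressed as dye-equivalent concentration against a six-point A647 standard series on each plate.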
# Resorufin autofl: qHTS Assay for Spectroscopic Profiling in Resorufin Spectral Region; Compound fluorescence, resorufin region 547/598 nm, buffer; stronger effect = higher value; max dye-equivalent concentration, M; hit rate 0.04% among 59,000; AID 588, 2007; active = above 10 nM dye equivalent; inconclusive = 1 to 10 nM; inactive = 1 nM or less; a few of its hits are not listed in these tables; also: highest value over a series up to 38 µM
#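 Compounds in 100 mM Tris buffer, pH 8.0, incubated 15 min at room temperature, then read with 547 nm excitation and 598 nm emission filters. Fluorescence was converted to dye-equivalent concentration using an on-plate six-point resorufin standard curve.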
# The depositor's hits bear a star; i = inactive; ? = inconclusive; . = not tested or not shown; [ ] = another dose, or the depositor's remark. These rows are one share of the data; the hit share may differ from the screen's.
# Sample of the layout, three compounds:
smiles,A488 fluor,AID923,TSHR agonist,A647 autofl,Resorufin autofl
COc1ccc(S(=O)(=O)N2CCC(C(=O)c3ccc4c(c3)OCCO4)CC2)cc1,i,0.3%,16%,4.5e-09,i
CN(C)C(=O)[C@H]1C[C@@H]1[C@H](NC(=O)OCc1ccccc1)c1ccccc1,.,2.8%,?,.,.
O=C(NCc1cccnc1)Nc1ccc(F)cc1F,i,-1.7%,1%,8.7e-09,i

# This part in full (from the top)
smiles,A488 fluor,AID923,TSHR agonist,A647 autofl,Resorufin autofl
COc1ccc(S(=O)(=O)N2CCC(C(=O)c3ccc4c(c3)OCCO4)CC2)cc1,i,0.3%,16%,4.5e-09,i
CN(C)C(=O)[C@H]1C[C@@H]1[C@H](NC(=O)OCc1ccccc1)c1ccccc1,.,2.8%,?,.,.
O=C(NCc1cccnc1)Nc1ccc(F)cc1F,i,-1.7%,1%,8.7e-09,i
Cc1ccc(NC(=O)C2CCN(C(=O)NC3CCCCC3)CC2)cc1Cl,i,1.5%,24%,1e-09,i
CCN(CC)c1cccc(OCC(=O)N(C)CCC#N)c1,i,4.2%,-1%,2.7e-09,i
O=C(Nc1ccc(F)cc1F)NC1CC(=O)N(Cc2ccccc2)C1 (stereo not drawn),.,3.6%,-5%,.,.
CCOC(=O)N1CCC(NC(=O)CSCc2nc(-c3ccc(OC)c(OC)c3)oc2C)CC1,i,-1.3%,1%[11.4 µM],6.3e-09,i
O=C(c1ccc(NC2=NC3CS(=O)(=O)CC3S2)cc1)N1CCN(C(=O)c2ccco2)CC1 (stereo not drawn),.,1.1%,-4%,.,.
Cn1cc(CN2CCc3ccccc3C2)c2ccccc21,i,-0.5%,.,2.9e-09,i
COc1ccc(-c2cc(=O)[nH]c(=O)[nH]2)cc1,i,.,.,1e-09,i
Cc1ccc(S(=O)(=O)N2CCN(c3nc(C)c4c(c3C#N)CC(C)(C)OC4)CC2)cc1,i,.,.,3.6e-09,i
COc1ccc(C2c3c(oc4ccccc4c3=O)C(=O)N2c2ccccn2)cc1 (stereo not drawn),.,3.7%,-12%,.,.
CCN(C1CCCCC1)S(=O)(=O)c1ccc(S(=O)(=O)NCCc2ccncc2)cc1,i,1.7%,3%,5.2e-09,i
CC(=O)O[C@]1(C)N=NC2(CCCCC2)O1,i,1.1%[11.5 µM],11%[11.4 µM],2e-08,i
CCc1ccc2oc(-c3cc(N)ccc3O)nc2c1,i,3.2%,-22%,4e-09,i
CCS(=O)(=O)Nc1ccc(Cc2ccncc2)cc1,i,6.5%,-7%,1e-09,i
O=C(COC(=O)c1ccc(NS(=O)(=O)c2ccc3c(c2)OCCO3)cc1)NCC1CCCO1 (stereo not drawn),i,0.5%,-3%,1.4e-09,i
CCn1nnnc1-c1ccc(OC)c(S(=O)(=O)Nc2ccc(C(=O)OC)cc2)c1,i,0.1%,5%,3.7e-09,i
CC(C)C(=O)Nc1cccc(NC(=O)c2cccnc2)c1,i,0.9%,1%,1.6e-08,i
O=C(CCN1C(=O)c2ccccc2C1=O)Nc1ccc(-c2nc3ccccc3o2)cc1,i,1.2%,-4%,1e-09,i
COc1ccc(NC(=O)c2sc(SC)nc2N)cc1,i,1.1%,-4%,9.4e-09,i
O=C(Nc1ccccc1)N1CC[C@@]2(CCCN(C(=O)c3cnccn3)C2)C1,i,-2.8%,1%,1.4e-08,i
O=C(NCc1cccs1)c1cc2c(s1)CCCC2,i,-0.6%,?,2.7e-08,i
CS(=O)(=O)NCc1nnc(SCc2ccccc2C(F)(F)F)o1,i,-0.2%,6%,1e-09,i
Cc1csc2ncc(C(=O)Nc3ccccc3F)c(=O)n12,.,6.2%,8%,.,.

# A stretch from the list above, as a working copy:
smiles,A488 fluor,AID923,TSHR agonist,A647 autofl,Resorufin autofl
CS(=O)(=O)NCc1nnc(SCc2ccccc2C(F)(F)F)o1,i,-0.2%,6%,1e-09,i
Cc1csc2ncc(C(=O)Nc3ccccc3F)c(=O)n12,.,6.2%,8%,.,.

# Continuation.
smiles,A488 fluor,AID923,TSHR agonist,A647 autofl,Resorufin autofl
CCOC(=O)C1CCCN(C(=O)c2cc3nc(-c4cccc(OC)c4)cc(C(F)(F)F)n3n2)C1 (stereo not drawn),i,19%,14%,2.8e-08,i
COC(=O)[C@@]1(Cc2ccc(F)cc2)[C@H]2c3cc(C(=O)N4CCCC4)n(Cc4ccc(C)c(F)c4F)c3C[C@H]2CN1C(=O)c1ccccc1,.,2.9%,?,.,.
O=C(O)CCSc1ccc2ccccc2n1,i,.,.,5.5e-09,i
COc1ccc(C(=O)N2CCCC(c3nc(-c4cc(OC)c(OC)c(OC)c4)no3)C2)cc1 (stereo not drawn),i,0.1%,18%,1.6e-08,i
Cc1ccc(C(C#N)N2CCOCC2)cc1 (stereo not drawn),i,-0.5%,-7%,1.6e-09,i
O=C(CCCC(=O)N(CC(=O)NC1CCCCC1)Cc1ccc2c(c1)OCO2)Nc1ccccn1,i,-1.7%,?,1e-09,i
Nc1nc(Cn2nnc(-c3ccccc3F)n2)nc(N2CCOCC2)n1,i,1.2%,1%,1.8e-08,i
COc1ccc2[nH]c(C)c(C(=O)CN(C)C)c2c1,i,-0.4%,4%[11.4 µM],1e-09,i
COc1cc(OC)cc(-n2nnnc2SCC(=O)NCc2ccc3c(c2)OCO3)c1,i,1.3%,20%,1e-09,i
Cn1c(-c2ccccc2)cnc1SCC(N)=O,i,5.6%,8%,1e-09,i
CN(C)c1ccc(C2N(c3ccc(Cl)cc3)C(=O)C3CCCN32)cc1 (stereo not drawn),.,1.8%,18%,.,.
CCOC(=O)C1CCCN(C(=O)C2CCN(S(=O)(=O)CC)CC2)C1 (stereo not drawn),i,2.0%,-1%,1e-09,i
O=c1c2c3nc4ccccc4nc3n(/N=C/c3ccco3)c2ncn1CCC1=CCCCC1,i,6.0%,1%,2.7e-08,i
COc1ccc(C2=NOC(C(=O)NCCN3CCOCC3)C2)cc1 (stereo not drawn),i,-0.5%,3%,1e-09,i
Cc1cccc(C)c1NC(=O)CSCC(=O)O,i,1.8%,6%,1e-09,i
O=C(Nc1cc(C(F)(F)F)ccc1N1CCOCC1)c1cccnc1,i,-0.2%,7%,2.5e-09,i
CCc1ccc(N2C(=O)c3sc4nnc(C)c(=O)n4c3C2=O)cc1,.,-0.8%,5%,.,.
Cc1ccc(NC(=O)N(Cc2cc3cc(C)cc(C)c3[nH]c2=O)CC2COCCO2)cc1 (stereo not drawn),i,-1.3%,28%,1e-08,i
CC1(C)S[C@@H]2[C@@H](NC(=O)[C@@H](N)c3ccccc3)C(=O)N2[C@H]1C(=O)O,i,.,1%,1.5e-08,i
O=C(NC1CCCCC1)NC1CC2CCC(C1)N2C(=O)NC1CCCCC1 (stereo not drawn),i,-0.5%,-19%,1e-09,i
CCc1ccc(NC(=O)CSc2nc3ccccc3c(=O)n2CCN2CCOCC2)cc1,i,-2.8%,?,5.8e-09,i
CCOc1cc(/C=N/n2cnnc2)ccc1OCC(=O)Nc1ccccc1OC,.,2.1%,15%,.,.
Cc1cc(NC(=O)Nc2ccc3c(ccn3C)c2)sn1,i,-3.0%,?,3.2e-09,i
CC1(C)CC(=O)NC=C(c2ccccc2)C1,i,-0.1%,-1%[11.4 µM],1e-09,i
COc1ccc(CNc2ccnc(-c3ccc(C(=O)N(C)C)cc3)n2)c(OC)c1,i,0.9%,?,2.6e-08,i

smiles,A488 fluor,AID923,TSHR agonist,A647 autofl,Resorufin autofl
N#Cc1nc(Cc2ccccc2)oc1NCc1cccnc1,i,1.4%,5%,1.9e-08,i
COc1ccc(C(c2nnnn2CC2CCCO2)N2CCN(c3ccc(F)cc3)CC2)cc1 (stereo not drawn),i,-1.3%,12%,4.9e-09,i
O=C1c2ccccc2C(O)N1CCN1CCOCC1 (stereo not drawn),.,-0.6%,4%,.,.
CCOc1ccc2cc(C#N)c(SCC(=O)OC)nc2c1,i,8.3%,4%,2.9e-08,i
O=C(NCc1ccco1)c1ccc2c(c1)C(=O)c1ccccc1-2,i,1.1%,0%,5.9e-09,i
COCCN(C(=O)c1cccc(OC)c1)c1nnc(-c2ccncc2)s1,i,-2.6%,-1%,6e-09,i
O=c1[nH]c2c(s1)C(c1ccco1)C1C3CCC(C3)C1S2 (stereo not drawn),i,15%,12%,1e-09,i
CSc1nc(N)nc(SCCS(=O)(=O)c2ccc(Cl)cc2)c1C#N,i,-1.1%,8%,3.1e-08,i
O=C(c1ccc(Cl)cc1)N1CCCCC(Sc2nnc(-c3ccc4c(c3)OCO4)o2)C1=O (stereo not drawn),i,-1.3%,11%,1e-09,i
CCOC(=O)Cc1cc(=O)c2c(=O)n(-c3ccccc3)[nH]c2[nH]1,i,0.5%,-18%,1.2e-08,i
N#Cc1nc(Cc2cccc3ccccc23)oc1NCCCN1CCOCC1,i,0.0%,.,2.3e-08,i
Cc1ccc(NC(=O)c2cccc(OCc3c(C)noc3C)c2)c(C)c1,i,0.4%,?,1e-09,i
CCCCc1noc2c1/C(=N\O)CC(c1ccccc1)C2 (stereo not drawn),i,-1.3%,-6%,1e-09,i
CC(C)CO/N=C1/[C@H]2O[C@@H]2[C@@H](O)[C@H]2[C@H]1CCn1c(=O)n(C)c(=O)n12,.,0.7%[11.5 µM],-1%[11.4 µM],.,.
Cc1ccc(S(=O)(=O)CC(c2ccccc2)N2CCOCC2)cc1 (stereo not drawn),i,-0.2%,-3%,5.7e-09,i
Clc1cccc(-c2nn3c(-c4ccncc4)nnc3s2)c1,i,0.0%,1%,3.8e-08,i
O=C(CSc1ccc2nnc(-c3ccccc3)n2n1)NCc1ccco1,i,0.5%,4%,1e-09,i
O=C(Nc1ccccn1)c1cc(-n2cnnc2)ccc1Cl,i,-0.1%,4%,4.8e-08,i
O=C(CC1(O)C(=O)N(Cc2ccccc2)c2ccccc21)c1ccncc1 (stereo not drawn),i,0.4%,6%,7.5e-09,i
O=C(Nc1ccc(Cl)c(Cl)c1)c1ccncc1,.,-0.8%,-8%,.,.
O=C(O)C1CC=CCC1C(=O)Nc1ccc(S(=O)(=O)N2CCCc3ccccc32)cc1 (stereo not drawn),i,-1.8%,-9%,7.5e-09,i
N#Cc1c(NC(=O)CSc2nnnn2C2CCCC2)sc2c1CCCC2,i,-3.0%,.,3.9e-09,i
Cc1ccc(S(=O)(=O)N2CCC(C(=O)Nc3ccc4c(c3)COC4=O)CC2)cc1,i,1.4%,-1%,1e-09,i
CCOc1ccccc1NC(=O)N1CCC(c2nc3ccccc3[nH]2)CC1,i,1.5%,8%,1e-09,i
CCn1c(SCC(=O)OC2CCCCC2)nc2ccccc2c1=O,i,0.7%,1%,1e-09,i
Cc1[nH]nc2c1C(c1ccc3c(c1)OCO3)C(C#N)=C(N)O2 (stereo not drawn),i,1.4%,6%,1.5e-09,i
CNC(=O)c1ccccc1NC(=O)c1cccc(S(=O)(=O)N2CCC(C)CC2)c1,i,0.9%,13%,2.1e-08,i
